S aureus helic – blocks Staphylococcus aureus DNA helicase; purified S. aureus helicase, fluorescence unwinding assay; about half of the hits fall short of the stated cut; inhibition, %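 (tested at about 80 µM)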; actives 0.05% (n = 120,000);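 active means both duplicates at 50% or more, or one of them with a favoured structure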;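 further: 0% = mean of negative control wells and 100% = mean of positive control wells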
MgrA DNA FP – S. aureus MgrA-DNA binding modulation | fluorescence polarization | inhibition, %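 (about 10 µg/mL by stock and volumes)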 | actives 0.13% (n = 84,000);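 active means above 50% in either of two replicates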;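 further: 0% = protein plus DNA without compound and 100% = DNA alone without protein; higher means less MgrA bound to DNA so lower polarization; one replicate is shown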
* = called active by the depositor; . = not tested or not shown; & = joins results of further samples.

SMILES	S aureus helic	MgrA DNA FP
CC(=O)N(c1ccccc1)c1nc(CSc2nnc(-c3ccc(Cl)cc3)o2)cs1	6	.
CC(NC(=O)c1ccc(F)cc1Cl)C(c1cccs1)N1CCCC1 (stereo not given)	-16	-2.1
Cn1c2c(c(=O)n(C)c1=O)C(O)(C(F)(F)F)C(=O)N2 (stereo not given)	11	-1.4
CN(C)C=NC(=O)c1ccc(-c2cccs2)s1	.	-1.4
O=C(NCc1nnc(SC/C=C/c2ccccc2)o1)c1cccs1	-14	.
CC(NC(=O)C1CCC(=O)N1Cc1ccccc1Cl)c1ccc2c(c1)OCCO2 (stereo not given)	7	.
CCc1ccc(NC(=S)N(CCCN2CCCCC2)Cc2cccs2)cc1	10	-1.5
COc1cccc(CNC(=O)C2c3ccccc3C(=O)N3CCc4cc(OC)c(OC)cc4C23)c1 (stereo not given)	-11	.
CC(Sc1nnc(-c2c[nH]c3ccccc23)o1)C(=O)Nc1ccccc1 (stereo not given)	-7	.
CCn1c(C)[n+](CC)c2ccccc21	.	-1.0
CC1(C)Cc2c(c(N3CCOCC3)nc3sc4c(NCCCO)nnnc4c23)CO1	1	.
CCNC(=O)CC1Sc2ccc(C(F)(F)F)cc2NC1=O (stereo not given)	-68	.
COC(=O)CSc1ccnc2cc(Cl)ccc12	.	-3.0
CN(C)/C=N/c1nc(Sc2ccc(C(F)(F)F)cc2[N+](=O)[O-])n[nH]1	.	-0.3
COc1cc(/C=C2\SC(N)=NC2=O)ccc1OCc1ccc(C)cc1	.	-1.3
COc1ccccc1N1CCN(C(=O)Nc2ccc(Br)cc2)CC1	.	-0.9
C/C(=N\O)C(=O)NCc1cccnc1	19	-0.3
COc1ccccc1C1CCN(C(=O)c2ccco2)CC1	.	-1.6
COc1cccc(=O)c2c(C)n(C)c(C)c12	2	0.4
Cc1nnc(SCC(=O)c2ccc3c(c2)NC(=O)CO3)n1C1CC1	9	.
NCCCN(Cc1ccco1)C1CCCC1	17	0.8
Nc1ccc(N2CCN(c3ccc(C(F)(F)F)cn3)CC2)nc1	.	-2.5
NNc1c(Cl)c(Cl)nc(C(=O)O)c1Cl	-2	.
COc1ccc(C(O)=C2C(=O)c3ccccc3C2=O)cc1	-16	0.9
COc1ccc(-c2nc(SC)c(S(=O)(=O)c3ccc(C)cc3)[nH]2)cc1	2	1.1
O=C(OCc1nc2ccccc2s1)c1ccc(F)cc1F	11	-0.2
CS(=O)(=O)c1ccc(C(=O)OCc2cc(=O)n3ccsc3n2)cc1	-8	.
CCOc1ccc2cc(C(=O)c3ccc(OC(F)F)cc3)oc2c1	15	.
CCSc1nnc(NC(=O)CC)s1	0	.
Cc1ccc(S(=O)(=O)CC(=O)N(C)C)cc1	-9	-1.3
Cc1nn(C)cc1CNC(=O)c1ccccc1Br	24	-3.2
O=C(O)/C=C/S(=O)(=O)c1ccccc1	-3	.
O=C(CSc1nncs1)NC(=O)C1CCCCC1	11	.
COc1ccc(/C=N/NC(=S)Nc2c(C)n(C)n(-c3ccccc3)c2=O)cc1OC	4	.
O=C1CCCc2c1n(CCN(Cc1ccccc1)Cc1ccccc1)c1ccc(Cl)cc21	-11	1.1
Cc1nn(CC(C)C)c(Cl)c1C(=O)N1CCCC1c1nc2ccccc2s1 (stereo not given)	26	.
Cc1nnc(Nc2ccc(CC(N)=O)cc2)c2ccccc12	-8	.
O=C(Nc1ccc2c(c1)OCCO2)c1ncn[nH]1	9	.
Cc1c(C(=O)N2CCC(C)CC2)sc2nc(-c3ccc(F)cc3)cn12	13	-0.7
O=C(Nc1ccc(I)cn1)c1ccc(-c2ccc(Cl)cc2)o1	8	-0.3

2 consecutive compounds out of the list so far, quoted:
SMILES	S aureus helic	MgrA DNA FP
Cc1c(C(=O)N2CCC(C)CC2)sc2nc(-c3ccc(F)cc3)cn12	13	-0.7
O=C(Nc1ccc(I)cn1)c1ccc(-c2ccc(Cl)cc2)o1	8	-0.3

New compounds follow
SMILES	S aureus helic	MgrA DNA FP
Cc1nn(-c2ccc(Cl)cc2)c2sc(C(=O)NC(C)(C)CO)cc12	-2	.
COc1ccc2[nH]c(C(=O)NCc3ccc4c(c3)OCO4)cc2c1	.	-0.1
C=CCn1c(COc2ccccc2F)nnc1SC(C)C(=O)NC(N)=O (stereo not given)	-11	.
NC(=O)CSc1nnc(-c2ccco2)n1N	11	-0.2
O=S(=O)(Cc1ccccc1)N/N=C/c1ccc2c(c1)OCO2	8	1.9
CCc1nnc2c3ccccc3nc(Nc3cccc(C(=O)O)c3)n12	0	.
O=C(NCCO)c1c(O)nc2ccccn2c1=O	-15	.
O=C1CN(c2ccccc2)C(=O)C1C(=O)N1CCOCC1 (stereo not given)	19	-0.8
Fc1cccc(CSc2ncc3ccccn23)c1	.	-0.7
CCOC(=O)/C(C#N)=C1/NC(=O)Nc2ccccc21	-6	1.7
c1ccc2c(c1)NC(c1ccncc1)n1c-2nc2ccccc21 (stereo not given)	10	0.2
COC(=O)NC(=Nc1c(C)cc(C)cc1C)C(F)(F)F	-10	-4.9
CCc1nc(NC(=O)NS(=O)(=O)c2ccccc2C(=O)OC)nc(OC)n1	-32	.
Cc1cc2[nH]c(=O)c(=O)[nH]c2cc1S(=O)(=O)NCc1cccs1	18	.
CN1CCN(c2ccccc2NC(=O)Cn2cnc3onc(-c4ccc(F)cc4)c3c2=O)CC1	32	.
Cc1ccc(C(=O)OCCOc2ccccc2F)cc1	0	0.8
O=C(C1CC1)N1CCc2cc(Br)cc(S(=O)(=O)NC3CCCC3)c21	14	.
N#CC(C(=O)CCN1C(=O)C2CC=CCC2C1=O)c1nc2ccccc2[nH]1 (stereo not given)	-2	.
CC(Oc1ccccc1)C(=O)NC1CCSc2ccccc21 (stereo not given)	-2	.
CCc1ccc(CNC(=O)C2CCN(c3nc4ccccc4o3)CC2)cc1	11	2.4

Six compounds out of the list above, sorted by their value in MgrA DNA FP, ascending.
SMILES	S aureus helic	MgrA DNA FP
COC(=O)NC(=Nc1c(C)cc(C)cc1C)C(F)(F)F	-10	-4.9
Fc1cccc(CSc2ncc3ccccn23)c1	.	-0.7
c1ccc2c(c1)NC(c1ccncc1)n1c-2nc2ccccc21 (stereo not given)	10	0.2
Cc1ccc(C(=O)OCCOc2ccccc2F)cc1	0	0.8
CCOC(=O)/C(C#N)=C1/NC(=O)Nc2ccccc21	-6	1.7
O=S(=O)(Cc1ccccc1)N/N=C/c1ccc2c(c1)OCO2	8	1.9

Carrying on:
SMILES	S aureus helic	MgrA DNA FP
CCN(CC)S(=O)(=O)c1ccc(=O)n(CC(=O)c2ccc[nH]2)c1	-8	.
CN(Cc1ccco1)C(=O)CNC(=O)c1ccc(Oc2ccccc2)cc1	9	.
CCCNc1nc(=O)[nH]nc1C	2	.
COC(=O)C(C#N)c1nc2ccccc2nc1N1CCN(c2ccc(F)cc2)CC1 (stereo not given)	-4	.
O=C(Nc1ccc(S(=O)(=O)Nc2cccc(C(F)(F)F)c2)cc1)c1ccco1	6	-2.8
COc1ccc(C2CC(=O)C=C(NCC(C)C)C2)cc1 (stereo not given)	6	.
O=C1N/C(=C\c2ccc(O)cc2)C(=O)c2ccccc21	15	-3.3
CC(C)c1cccc(C(C)C)c1N1C(=O)C=CC1=O	.	-3.6
CCC(C(=O)NNC(=O)c1ccc(N(C)C)cc1)c1ccccc1 (stereo not given)	.	-3.3
CC1CCCN(C(=O)C2CC(=O)N(C3CCCCC3)C2)C1 (stereo not given)	6	3.6
Cn1c(=O)n(C)c2ccccc21	8	.
O=C(Nc1ccc(S(=O)(=O)C(F)F)cc1)c1cccnc1N1CCCC1	6	.
COC(=O)CS(=O)(=O)c1ccc2c(c1)CC(=O)N2	7	.
CC1CC(C)(C)NC(=S)N1CCC(=O)Nc1ccc(F)c(F)c1 (stereo not given)	-34	.
CC(C)[C@H](NC(=O)COc1ccc(C#N)cc1)c1nc2ccccc2[nH]1	-18	.
O=C(Nc1ccc(F)cc1)Oc1ccccc1N1CCOCC1	-6	.
Cc1ccc(S(=O)(=O)N(C/C=C/c2ccccc2)C(=O)N2CCN(C)CC2)cc1	-19	.
CC1CCc2c(sc(N)c2C(N)=O)C1 (stereo not given)	14	1.1
COc1ccc(CCNS(=O)(=O)c2cc(C)c(Cl)cc2Cl)cc1OC	.	0.1
O=c1oc(-c2cccs2)nn1CN1CCCC2CCCCC21 (stereo not given)	-7	.

2 of the compounds above, with bars between the fields.
SMILES | S aureus helic | MgrA DNA FP
CCN(CC)S(=O)(=O)c1ccc(=O)n(CC(=O)c2ccc[nH]2)c1 | -8 | .
CN(Cc1ccco1)C(=O)CNC(=O)c1ccc(Oc2ccccc2)cc1 | 9 | .

Random excerpt: 2 entries already listed
SMILES	S aureus helic	MgrA DNA FP
CCN(CC)S(=O)(=O)c1ccc(=O)n(CC(=O)c2ccc[nH]2)c1	-8	.
Cc1ccc(S(=O)(=O)N(C/C=C/c2ccccc2)C(=O)N2CCN(C)CC2)cc1	-19	.

(more compounds)
SMILES	S aureus helic	MgrA DNA FP
Cc1nc2sc(C(c3cccc(F)c3)N3CCC(O)CC3)c(O)n2n1 (stereo not given)	-6	.
O=C(NN1S(=O)(=O)c2ccccc2S1(=O)=O)c1ccc(Br)cc1	6	-0.3
CC1=CC(=C2C(=O)c3ccccc3C2=O)C=C(C)O1	12	.
CC(=NCCCN1CCOCC1)c1c(C)[nH]n(-c2ccc(F)cc2)c1=O	10	-3.0
O=C(NCc1ccccc1)c1cc(C(=O)C2CCCCC2)c[nH]1	.	-0.2
O=C(CCN1C(=O)c2ccccc2S1(=O)=O)Nc1ccccc1	15	.
O=S(=O)(NCC1CCCO1)c1ccc(-c2cc(C(F)(F)F)no2)s1 (stereo not given)	7	.
Cc1cc2nnc(-c3cccc4c3OCO4)n2c2ccccc12	19	1.9
Cc1cc(NS(=O)(=O)c2ccc(N)cc2)no1	.	0.1&4.1&3.8
COc1ccc(C(=O)Nc2ccc(Oc3ncnc4cc(Cl)ccc34)nc2)cc1	.	-0.9
O=C(Nc1ccccc1N1CCOCC1)C1(c2ccccc2)CC1	11	.
CC(C)(C)c1ccc(NC(=O)C2CCCC2)cc1	13	.
O=c1ccc(C2CCN(S(=O)(=O)c3ccc(F)cc3)CC2)nn1-c1ccccc1	-2	-0.8
CCS(=O)(=O)C1=NSC2=NC(=O)/C(=C\c3ccc(OCc4ccc(C)cc4)c(OC)c3)C(=N)N21	3	8.9
O=S(=O)(NCC1COc2ccccc2O1)c1cc(Cl)sc1Cl (stereo not given)	.	-0.3
CC1CC(C)CN(C(=O)CC2Oc3ccccc3NC2=O)C1 (stereo not given)	-11	1.7
CC(O)/C=C/c1cccc[n+]1C (stereo not given)	.	4.7
CCC(=O)C12CC3CC(CC(C3)C1)C2	26	.
O=C(O)c1ccccc1Sc1ccccc1S(=O)(=O)NC1CCCCC1	.	-0.2
CN1CCNC(c2ccccc2)C1 (stereo not given)	-18	.
C=CCNC(=O)c1c(O)nc2ccccn2c1=O	-8	.
CN1CCN(C2=Nc3c(Cl)cc(Cl)c4cccc2c34)CC1	-126	.
O=C(CCc1nnc2ccc(N3CCCC3)nn12)Nc1cccnc1	-37	.
C/C(=N\N1C(=O)CC(=O)NC1=S)c1ccc(Cl)cc1	4	11
O=C1C(=Nc2cccnc2)c2ccccc2N1CN1CCOCC1	5	-0.5
O=C(CSc1nnc(COc2ccccc2)o1)NCCc1ccccc1	34	.
Cc1ccc(-c2nnn(CC(=O)N3CCCC3c3ccc4c(c3)OCCCO4)n2)cc1 (stereo not given)	-3	.
O=C(O)c1sccc1S(=O)(=O)Nc1ccccc1N1CCCCC1	.	0.0
CCCC(C)C(=O)Nc1ccc(F)cc1 (stereo not given)	13	4.0
O=c1ccc2cc3c(-c4ccc(F)cc4)coc3cc2o1	7	0.2
Cc1ccc(S(=O)(=O)N2CCCC(c3nc4c(nnn4Cc4ccc5c(c4)OCCO5)c(=O)[nH]3)C2)cc1 (stereo not given)	-6	.
CN(C)c1ccc(-c2nc3ccccc3o2)cc1	7	4.6
Cc1ccc(-n2c(-c3ccccc3)csc2=NC(=O)c2ccccc2)cc1	4	-0.3
Cc1ccc(CNC(=O)CN2CCOc3ccccc32)cc1	-13	.
Oc1c(Br)cc(Br)c2cccnc12	.	8.3
CCOC(=O)c1cc(S(=O)(=O)NCC2CCCO2)cn1C (stereo not given)	16	1.8
CC1CCN(C(=O)CSC2=NCCS2)CC1	-11	0.4
Cc1cc(C)n2nc(Nc3ccccc3)cc2n1	-11	-1.0
CN(C)c1ccc(/C=C(\C#N)C(=O)OCc2ncc(-c3ccccc3)o2)cc1	-232	.
Cc1ccc(OCCSc2nc3ccccc3n2CC(O)CO)cc1 (stereo not given)	.	3.7
CCc1nonc1NC(=O)c1ccc(C)cc1	4	1.8
COc1cccc(-c2nc(CN3CCN(c4ccccc4OC)CC3)cs2)c1	-9	.
C[C@]12C=CC(=O)C=C1CCC1C2[C@@H](O)C[C@@]2(C)C1CC[C@]2(O)C(=O)CO (stereo not given in full)	.	-0.2
Cc1ccccc1NC(=O)N1CC(C)CC(C)C1 (stereo not given)	0	3.3
CNC(=O)C1CCN(S(=O)(=O)c2ccc3c(c2)nc(C)n3C2CCCC2)CC1	14	-0.8
COc1ccc2cc(S(=O)(=O)c3ccccc3)c(=O)oc2c1	-13	.
CCc1ccc(Oc2coc3cc(O)ccc3c2=O)cc1	27	.
Cn1cccc1C(=O)OCC(=O)c1c[nH]c2ccccc12	-9	.
CC(C)CCC1CC(C)(C(C)O)OC1=O (stereo not given)	10	4.3
COC(=O)C1=CN(Cc2cccs2)C=C(C(=O)OC)C1c1cccc(OC)c1	12	0.3
Cc1cccc(-n2c(CCN3C(=O)c4ccccc4C3=O)nc3ccccc3c2=O)n1	-1	-0.3
CC(C)NC(=S)N/N=C/c1ccccc1C(=O)O	14	.
COc1ccc(-c2nc(COc3ccccc3Cl)nc(SC)c2C#N)cc1	.	-0.4
CCOC(=O)N1CCC(=NNC(=S)Nc2c(C)cccc2C)CC1	-6	.
CN(CC(=O)N1CCc2ccccc21)S(=O)(=O)c1ccc(-c2ccc(=O)[nH]n2)s1	20	.

Not all compounds are listed. The share of hits here may be higher or lower than overall.
